High-throughput results (PubChem BioAssay)
Ba CapD inh: CapD enzyme inhibition. AID 492967. hit rate 0.23% among 140,000. purified CapD enzyme, fluorescence intensity read-out; hits give low values; some hits fall short of the stated cut. z-score (test concentration not listed);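 active means z-score under -4 in either of two replicates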;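 further: stock transfer was 100 nL into about 40 µL; score is relative to mean and spread of the plate; one replicate is shown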
AID504770: growth inhibitors of E. coli YBA685 in a screen for V. cholerae RctB (chromosome II replication) inhibitors. E. coli YBA685 rctB-dependent plasmid, OD600 growth, 3 h; hits give low values. AID 504770. hit rate 0.27% among 130,000. z-score (concentration not given with the values);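 active means z-score under -2 on both plates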;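 further: wells of about 30 µL received 100 nL stock; score is relative to mean and SD of the test wells; the first replicate is given; strong numbers were not always called active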
Numbers without * were called inactive; i = inactive; . = no result given; & = joins results of further samples. This is a random part of the collection (roughly 0.39% active in at least one column).

A first look:
SMILES,Ba CapD inh,AID504770
O=C(NCCc1nnc2ccc(SCC(=O)N3CCc4ccccc43)nn12)c1ccccc1,.,0.25
CC1CC(C)N(C(=O)c2cc(-c3ccc(F)cc3)no2)C(C)C1 (stereo unspecified),-2,-0.35
O=C(O)C1CC(=O)N(Cc2ccncc2)C1 (stereo unspecified),.,-0.2
CC(=O)c1c(C)oc2ccc(N(C(C)=O)S(=O)(=O)c3cccc([N+](=O)[O-])c3)cc12,-0.39,.
O=S(=O)(c1cccc(Br)c1)N1CCN(c2ccccc2F)CC1,-0.91,.
CC(C)(C)c1cc(/C=C2\Cc3ccccc3C2=O)cc(C(C)(C)C)c1O,-0.27,.

Main list, repeating the preview:
SMILES,Ba CapD inh,AID504770
O=C(NCCc1nnc2ccc(SCC(=O)N3CCc4ccccc43)nn12)c1ccccc1,.,0.25
CC1CC(C)N(C(=O)c2cc(-c3ccc(F)cc3)no2)C(C)C1 (stereo unspecified),-2,-0.35
O=C(O)C1CC(=O)N(Cc2ccncc2)C1 (stereo unspecified),.,-0.2
CC(=O)c1c(C)oc2ccc(N(C(C)=O)S(=O)(=O)c3cccc([N+](=O)[O-])c3)cc12,-0.39,.
O=S(=O)(c1cccc(Br)c1)N1CCN(c2ccccc2F)CC1,-0.91,.
CC(C)(C)c1cc(/C=C2\Cc3ccccc3C2=O)cc(C(C)(C)C)c1O,-0.27,.
O=C(OCCN1C(=O)c2cccc3c(N4CCOCC4)ccc(c23)C1=O)c1ccc(Cl)cc1,0.075,.
COc1ccc(N2C(=O)CSC2c2cc3c(cc2[N+](=O)[O-])OCO3)c(OC)c1 (stereo unspecified),0.65,.
CCCN(CCC)C(=O)c1c(C)[nH]c(C(=O)OCC)c1C,.,-0.15
COc1ccc(NC(=O)CCc2c(C)c3c(C)nn(-c4cccc(F)c4)c3n(C)c2=O)cc1OC,0.37,-1.2
Cc1cc(C)cc(NC(=O)CN2CCN(S(=O)(=O)c3ccccc3)CC2)c1,.,0
CN(C)S(=O)(=O)c1ccc(C(=O)NCCC23CC4CC(CC(C4)C2)C3)cc1,-0.17,-0.05
CCN(CC)CCCC(C)Nc1c2ccc(Cl)cc2nc2ccc(OC)cc12 (stereo unspecified),-0.085&-1.2,0.2
CC(C)(CC(=O)O)CC(=O)N1CCN(c2ccccn2)CC1,9.8,0.2
CCOC(=O)/C(=C\c1cccs1)C(=O)CN1C(=O)c2ccccc2S1(=O)=O,.,-0.6
Cc1ccc(/C(O)=C2/C(=O)C(=O)N(CCCN(C)C)C23C(=O)N(C)c2ccccc23)cc1F (stereo unspecified),0.51,0.1
CC(O)(CS(=O)(=O)c1ccc(Br)cc1)c1ccccc1 (stereo unspecified),-0.14,.
O=C(Cc1ccccc1)NC1CCN(Cc2ccccc2)CC1,-0.18,0
CN1CCC(N(C(=O)c2ccc(C(F)(F)F)cc2)C2CCN(Cc3ccccc3)CC2)CC1,-0.12,.
Cc1ccc(C(=O)CSc2ncn[nH]2)c(C)c1,0.46,0.1
N#C/C(=C\c1ccc(O)cc1)C(=O)O,-0.27,.
CNC(C)C(=O)C12CC3CC(CC(C3)C1)C2 (stereo unspecified),0.24,-0.55
CC(=O)Nc1ccc(S(=O)(=O)Nc2ccc(S(=O)(=O)Nc3nc(C)cc(C)n3)cc2)cc1,-0.42,.
CN(C)c1ccc(CN2CCN(CCOC(=O)NCc3ccc(-c4csnn4)cc3)CC2)c2ccccc12,5,.
CCC(CO)NC(=S)Nc1ccsc1C(=O)OC (stereo unspecified),0.055,-0.45
COc1ccc(/C=N/NC(=O)Nc2nonc2N)cc1,1,0.05
COC(=O)c1ccc(NC(=O)c2ccccc2C)cc1OC,-0.17,-0.65
O=C(c1cc(=O)oc2cc(OCc3ccc(Cl)cc3)ccc12)N1CCOCC1,8.7,.
CCOC(=O)/C=C1\SCC(=O)N1CCSc1nncn1-c1ccccc1,.,-0.4
COc1ccc(C2=NC(C)(C)CO2)cc1OC,-0.01,.

More compounds follow.
SMILES,Ba CapD inh,AID504770
CCCCCCCCCC(=O)OC1CCC2(C)C3CCC4(C)C(C(C)CCCC(C)C)CCC4C3CC(Br)C2(Br)C1 (stereo unspecified),-0.06,.
CCc1ccc(Nc2nc(N)nc(-c3oc4ccccc4c3C)n2)cc1,-0.97,2.3
Cn1c(-c2cccs2)n[nH]c1=S,4.6,.
O=C(Cc1csc(-c2ccccc2)n1)NC1CC1,.,0
N#CC1=C(SCc2ccccc2Br)NC(=O)C(C#N)C12CCCCC2 (stereo unspecified),0.2,.
O=C(O)c1ccccc1SCC(=O)N1CCOCC1,0.19,0.05
CC(C)CCN1CC(C(=O)N2CCN(c3ccc(F)cc3)CC2)CC1=O (stereo unspecified),-1.1,-0.65
COc1ccc(C(=O)CSc2nc(N)cc(=O)[nH]2)cc1OC,-0.04,-0.1
Cc1ccccc1S(=O)(=O)Cc1ccc(C(=O)N2CCc3ccccc32)o1,-2.2,1.6
c1ccc(-n2cccc2)c(N2CCCCC2)c1,0.07,-0.1
NC(=O)c1cc2ccccc2oc1=O,27,-0.45
O=c1[nH]c(NC2CCN(S(=O)(=O)c3ccccc3C(F)(F)F)CC2)nc2c1CCCC2,.,0.6
CCN1CCN(c2oc(COc3ccc(Cl)cc3)nc2C#N)CC1,0.2,0.15
O=C(OCc1ccc(/C=C/c2ccccc2)cc1)N1CCC2(CC1)C(=O)NCN2c1ccccc1,6.9,.
CS(=O)(=O)c1ccccc1C(=O)NNC(=O)CNC(=O)CNC(=O)c1ccc([N+](=O)[O-])cc1,-0.72,.
C=CCOC(=O)C1=C(C)OC(N)=C(C#N)C12C(=O)Nc1ccc(Cl)cc12 (stereo unspecified),-0.17,.
Oc1cc(CN2CCCCCC2)c(O)cc1CN1CCCCCC1,-1.2,-0.7
O=C1/C(=C/c2c[nH]c3ccccc23)CSc2ccccc21,-1.5,0.2
COCc1nnc(NC(=O)C2CC(=O)N(CCc3ccc(F)cc3)C2)s1 (stereo unspecified),.,-0.65
Cc1c(Br)c(C(F)(F)F)nn1CC(=O)Nc1cc(C(F)(F)F)ccc1Cl,-0.55,.
O=C(CCN1CCOCC1)Nc1cc(C(=O)NCc2cccc(Cl)c2)ccc1N1CC2CC(C1)c1cccc(=O)n1C2 (stereo unspecified),0.055,.
O=C(CC1CC2CCC1C2)NC(c1ccccc1)c1ccccc1 (stereo unspecified),-0.11,0.25
O=C(Cn1ncc2ccc(Cl)cc21)NCc1ccccc1,0.3,-0.35
Cc1ccc(C2(C)CC(C)(C)N(C(=O)CSC#N)c3ccc(C)cc32)cc1 (stereo unspecified),-0.08,.
N#Cc1ccc(CSc2ncn[nH]2)cc1,.,-0.15
O=C(COc1ccc(Cl)cc1Cl)N1CCN(CCN2C(=O)c3cccc4cccc(c34)C2=O)CC1,0.095,.
CSc1ncnc2c1c(-c1ccccc1)cn2-c1ccc(F)cc1,1.1,0.1
CCc1cc(C)cc(OCCn2cc(C=C3C(=O)NC(=S)NC3=O)c3ccccc32)c1,-1,.
Cc1ccc(C#Cc2ccc(C)cc2)cc1,0.14,.
N#Cc1ccccc1CS(=O)(=O)N1CCOCC1,.,0.2

Five entries picked at random from those above, as already listed:
SMILES,Ba CapD inh,AID504770
O=c1[nH]c(NC2CCN(S(=O)(=O)c3ccccc3C(F)(F)F)CC2)nc2c1CCCC2,.,0.6
C=CCOC(=O)C1=C(C)OC(N)=C(C#N)C12C(=O)Nc1ccc(Cl)cc12 (stereo unspecified),-0.17,.
c1ccc(-n2cccc2)c(N2CCCCC2)c1,0.07,-0.1
Cc1ccccc1S(=O)(=O)Cc1ccc(C(=O)N2CCc3ccccc32)o1,-2.2,1.6
O=C(Cn1ncc2ccc(Cl)cc21)NCc1ccccc1,0.3,-0.35

New compounds follow
SMILES,Ba CapD inh,AID504770
COc1ccc(C(C#N)c2nc3ccccc3nc2C(F)(F)F)cc1 (stereo unspecified),-0.61,1.9
O=C(COc1cccc(-n2cnnn2)c1)N1CCCCCC1,.,-0.2
CN=C(Nc1cc(C)nn1CCC#N)c1ccccc1,.,1.6
Cc1cccc(C)c1NC(=O)C1(N(C)C(=O)c2ccc(Cl)cc2)CCC(C(C)(C)C)CC1 (stereo unspecified),-0.1,.
CSc1ncc(Cl)c(C(=O)Nc2c(C(=O)Nc3ccccc3)oc3ccccc23)n1,-0.24,0.25
O=S(=O)(Nc1ccc2ccccc2n1)c1ccccc1,37,2
CC(=O)NC(c1ccccc1)(c1ccccc1)C(F)(F)F,0.37,-0.1
O=C(Nc1cccc(C(F)(F)F)c1)N1CCC(CN2CCOCC2)CC1,-1.6,1.8
CCOc1cc(-n2cnnn2)c(OCC)cc1NC(=O)c1cc2cccc(OC)c2oc1=O,.,0.35
COc1ccc(C(=O)[C@@H]2[C@@H](c3cccnc3)C(C#N)(C#N)[C@H]3C=Cc4ccccc4N23)cc1,0.54,.
Fc1ccc(-c2cnc3c(Cl)cc(C(F)(F)F)cc3n2)cc1,0.7,.
Cc1nn(-c2ccccc2)c(C)c1CN=Cc1c(O)[nH]c(=O)[nH]c1=O,.,-2
O=S(=O)(NCCn1ccc2ccccc21)c1ccccc1,0.73,-1.2
O=c1cc(-c2cccc(C(F)(F)F)c2)c2ccc(OCc3ccccn3)cc2o1,5.8,.
O=C(Oc1ccc(C=Nc2ccccc2Cl)cc1)c1cccnc1,i,-0.7
O=C(CSc1nnc(CNC(=O)c2ccc(S(=O)(=O)N3CCCC3)cc2)n1-c1ccc(F)cc1)Nc1nccs1,-0.33,.
Cc1ccc(-n2nnnc2SCC(=O)N2Cc3ccccc3CC2C(=O)O)cc1 (stereo unspecified),.,0.75
CCN1/C(=C2\C(=O)N(c3ccccc3)N=C2C)C=Cc2cc(OC)ccc21,-0.67,-0.05
O=C(c1ccc2c(c1)N(Cc1ccccc1)C(=O)CS2=O)N1CCCCC1 (stereo unspecified),-0.56,-0.5
CCOC(=O)c1c(-c2ccccc2)oc2ccc(N(C(C)=O)S(=O)(=O)c3ccc(OC)cc3)cc12,-0.48,-0.45
CCc1nnc(NC(=O)Cc2ccccc2)s1,-0.4,-0.8
COc1ccc(CCN2C(=O)CSC2=Nc2cc(Cl)cc(Cl)c2)cc1OC,-0.59,.
N#Cc1ccc(-c2ccccc2)nc1SCCN1CCOCC1,0.82,-0.6
O=C(Cc1ccc2c(c1)OCCO2)Nc1ccc(-c2nnc3n2CCCCC3)cc1,.,0.35
CCn1cc(Br)c(C(=O)Nc2ccccc2C(C)(C)C)n1,-0.07,-0.05
CCc1nc(C)ccc1OCC(N)=O,0.37,0.65
CC(C)N1C(=O)CCC1C(=O)NCCc1ccc(Cl)cc1 (stereo unspecified),-0.12,2
O=C(c1ccc2c(=O)n(C3CCCCC3)c(SCc3cccc([N+](=O)[O-])c3)nc2c1)N1CCOCC1,-0.46,.
CC1=CC(=Nc2c(C)n(C)n(-c3ccccc3)c2=O)c2ccccc2C1=O,-0.61,1.8
COc1cccc(-n2c(SCC(=O)Nc3ccc4[nH]c(=O)[nH]c4c3)nc3ccccc3c2=O)c1,.,-0.3

Next entries follow:
SMILES,Ba CapD inh,AID504770
CCOC(=O)c1ccc(Oc2nc(NC)nc(SC)n2)cc1,0.02,.
Cc1[nH]c(=O)[nH]c(=S)c1C#N,.,0.2
CC(N)c1ccc(Br)cc1 (stereo unspecified),.,0.2
CCSc1nnc(-c2c[nH]c3ccccc23)n1CC,-0.86,-0.45
Cc1ccc(C2(c3ccc(C)cc3)CC2C(=O)Nc2ccc(Cl)c(Cl)c2)cc1 (stereo unspecified),-0.09,.
[O-][n+]1c2c(nn1-c1ccccc1)/C(=N\O)CCC2,.,0.2
COc1ccc(-c2noc(COC(=O)C3=NN(c4cc(C)ccc4C)C(=O)CC3)n2)c(OC)c1,.,0.45
C=COC(=O)CSc1nc(-c2ccccc2)cc(C(F)(F)F)c1C#N,14,.
O=c1c(/C=N/O)cc2cccc3c2n1CCC3,1.7,.
Cc1oc2c(cc(NS(=O)(=O)c3ccc(Br)cc3)c3ccccc32)c1C(=O)OC(C)C,0.12,.

Single entries from above:
O=c1c(/C=N/O)cc2cccc3c2n1CCC3 @ Ba CapD inh = 1.7
[O-][n+]1c2c(nn1-c1ccccc1)/C(=N\O)CCC2 @ AID504770 = 0.2
CC(N)c1ccc(Br)cc1 (stereo unspecified) @ AID504770 = 0.2
C=COC(=O)CSc1nc(-c2ccccc2)cc(C(F)(F)F)c1C#N @ Ba CapD inh = 14
